Compound activity: PubChem BioAssay, ICCB-Longwood Screening Facility, Harvard Medical School
Mtb MenB inh: Mtb MenB enzyme inhibition | inhibition, %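 (about 12 µg/mL by stock and volumes)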 | P9WNP5 | MenB enzyme assay, absorbance read-out; some hits fall short of the stated cut | actives 0.43% (n = 100,000) | AID 540299;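 active = mean of two replicates above 30%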;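 note: 0% = no compound and 100% = wells with inactive enzyme; the first replicate is given; strong numbers were not always called active; inactives centre near -10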
Target sequence (P9WNP5 whole entry, looked up): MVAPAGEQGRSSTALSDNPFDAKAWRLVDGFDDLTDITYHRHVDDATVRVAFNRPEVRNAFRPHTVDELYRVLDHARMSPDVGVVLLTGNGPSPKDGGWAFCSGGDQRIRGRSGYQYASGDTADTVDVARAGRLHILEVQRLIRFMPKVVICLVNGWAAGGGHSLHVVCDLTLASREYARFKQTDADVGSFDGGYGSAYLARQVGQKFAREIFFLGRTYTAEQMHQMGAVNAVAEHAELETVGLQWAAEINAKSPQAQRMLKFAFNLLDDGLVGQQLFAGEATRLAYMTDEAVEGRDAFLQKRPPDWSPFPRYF
PV pol inh: poliovirus RNA polymerase inhibition. P03300. poliovirus polymerase elongation, fluorescence polarization; active compounds read low. % elongation, % (compound at 16.7 µg/mL). actives 0.66% (n = 150,000); in the data active = % elongation below about 90%; note: some results filed as inactive read as strong as hits
Mtb MbtI inh: inhibitors of Mycobacterium tuberculosis siderophore enzyme MbtI; inhibition, %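 (about 17 µg/mL by stock and volumes)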; actives 0.89% (n = 100,000); purified MbtI enzyme, fluorescence intensity read-out; AID 493033; P9WFX0;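 active = above 50% in both replicates, above 80% if mildly self-fluorescent; inactive = the rest, strongly fluorescent compounds included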;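 note: 0% = mean of negative and 100% = mean of positive controls; one replicate is shown; some compounds called inactive have numbers as strong as hits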
Target sequence (P9WFX0 whole entry, looked up): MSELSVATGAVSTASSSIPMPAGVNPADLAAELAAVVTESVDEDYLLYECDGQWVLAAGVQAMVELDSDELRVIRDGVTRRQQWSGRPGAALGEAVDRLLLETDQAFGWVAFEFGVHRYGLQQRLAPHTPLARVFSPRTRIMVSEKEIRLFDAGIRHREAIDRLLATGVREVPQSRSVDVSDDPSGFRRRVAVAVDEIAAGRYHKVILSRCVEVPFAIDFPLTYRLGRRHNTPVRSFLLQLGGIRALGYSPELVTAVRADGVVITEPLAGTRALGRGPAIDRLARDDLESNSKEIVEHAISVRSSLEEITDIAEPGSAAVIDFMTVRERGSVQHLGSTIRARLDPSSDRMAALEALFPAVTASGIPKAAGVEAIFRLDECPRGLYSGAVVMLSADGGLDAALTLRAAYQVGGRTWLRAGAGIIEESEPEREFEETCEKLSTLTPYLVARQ
PV pol inh intensity: recorded beside PV pol inh, whose call it bears; % elongation; measured here: total intensity read-out; formula for this scale not given here;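 total fluorescence in place of polarization; lower means less elongation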
An asterisk follows results filed as active; i = inactive; x = not tested or not shown.

Values run as follows: Mtb MenB inh | PV pol inh | PV pol inh intensity | Mtb MbtI inh
CCOC(=O)C1=C(C)NC(=O)C1CC(=O)Nc1ccc(C(=O)OCC)cc1 (stereo not drawn)
→ -15 | 107 | 113 | -8
O=C1c2ccccc2C(=O)N1CCCC(=O)N(Cc1nc(-c2ccccc2)no1)C1CCCCC1
→ -27 | 105 | 102 | 1
CC(=O)Oc1cccc(OC(C)=O)c1OC(C)=O
→ -1 | 106 | 103 | 2
Cc1cccc(C(CC(=O)N2CCCC2)c2ccccc2)c1O (stereo not drawn)
→ 3 | 102 | 103 | -22
COc1cccc(-n2cnnc2SCC(=O)c2ccc(CNC(=O)C(C)(C)C)s2)c1
→ -3 | 102 | 102 | 17
CCc1c(C)sc(NC(=O)C2c3ccccc3Oc3ccccc32)c1C(=O)OC
→ -22 | 103 | 103 | -118
COc1ccc(C(CNC(=O)c2ccc(OCc3c(C)noc3C)cc2)N2CCCC2)cc1 (stereo not drawn)
→ -8 | 101 | 109 | -1
FC(F)(F)c1ccc2nc(SCc3ccc(Br)cc3)[nH]c2c1
→ -5 | 99 | 105 | -3
CN1C/C(=C\c2ccc(N3CCOCC3)cc2)C(=O)/C(=C/c2ccc(N3CCOCC3)cc2)C1
→ -45 | 103 | 104 | 2
COc1ccc(-c2csc(Nc3ccccc3)n2)cc1OC
→ -1 | 100 | 100 | 15
CCn1c(SCCn2c(=S)n(C)c3ccccc32)nc2ccccc21
→ -8 | 110 | 114 | x
CCN(CC(=O)Nc1cccc(F)c1)CC(=O)Nc1ccccc1OC
→ -27 | 104 | 96 | -5
Cc1ccc(N=Cc2cc3ccccc3[nH]c2=O)cc1
→ -8 | 102 | 97 | 8
O=C(CSC1CCCC1)c1ccccc1Cl
→ x | 100 | 102 | 4
CCCCN(C)C(=O)c1ccc(Sc2ccc(Cl)cc2)c(NC(C)=O)c1
→ -15 | 102 | 103 | 0
CCc1sc(C(=O)NN)cc1C
→ -23 | 100 | 102 | 17
Cc1oc2c(F)c(F)c(F)c(F)c2c1C#N
→ -9 | 102 | 105 | 4
NC(=O)CN1CCN(Cc2ccc3c(c2)OCO3)CC1
→ -12 | 101 | 103 | -8
O=COCC1OC(OC=O)C(Nc2ccccc2)C(OC=O)C1OC=O (stereo not drawn)
→ -10 | 106 | 110 | x
OCCNCC(O)Cn1ccc2ccccc21 (stereo not drawn)
→ 3 | 103 | 101 | 6

Rewritten with each value named: entries from further up
> CCn1c(SCCn2c(=S)n(C)c3ccccc32)nc2ccccc21
  Mtb MenB inh = -8	PV pol inh = 110	PV pol inh intensity = 114	Mtb MbtI inh = x
> CCc1sc(C(=O)NN)cc1C
  Mtb MenB inh = -23	PV pol inh = 100	PV pol inh intensity = 102	Mtb MbtI inh = 17

(cont.)
Values run as follows: Mtb MenB inh | PV pol inh | PV pol inh intensity | Mtb MbtI inh
O=C(NCc1cccnc1)c1ccc(S(=O)(=O)N2CCCCC2)cc1
→ -14 | 102 | 103 | 3
CCOC1=NC(C(F)(F)F)(C(F)(F)F)N=C2Sc3ccccc3N12
→ -13 | 102 | 108 | x
COc1ccccc1-c1nc(SC)n[nH]1
→ -13 | 105 | 104 | -71
CCS(=O)(=O)c1ccc(O)c(NC(=O)COc2ccc(OC)cc2)c1
→ -26 | 101 | 106 | 2
O=C1C=CC(=NOC(=O)c2ccc(Cl)cc2)C=C1
→ -34 | 106 | 101 | -2
CCN(c1ccccc1)S(=O)(=O)c1cc(C(=O)OC)n(C)c1
→ -5 | 101 | 102 | -25
Cc1cccc(NC(=O)C2c3ccccc3C(=O)N3CCc4ccccc4C23)n1 (stereo not drawn)
→ -17 | 101 | 104 | -14
O=C(NCc1ccccc1)C1=NS(=O)(=O)c2ccccc2N1
→ 5 | 102 | 103 | -6
O=c1nc2sc3ccccc3n2c(=O)n1-c1ccccc1
→ 0 | 106 | 98 | 5
CC(O)CN(CC(C)O)c1ncnc2c1sc1nc3c(cc12)COC(C)(C)C3 (stereo not drawn)
→ -40 | 101 | 102 | 90
O=C(Nc1cccnc1)c1[nH]nc2c1CCc1ccccc1-2
→ -2 | 99 | 103 | 10
CN(C)S(=O)(=O)c1ccc(NC(=O)Cn2ccsc2=N)cc1
→ -5 | 101 | 110 | -12
Cc1ccc(CN2CCC(CNC(=O)Nc3ccc4c(c3)OCCO4)C2)cc1 (stereo not drawn)
→ -23 | 104 | 99 | -4
Cc1cc(NC2CCCCC2)nc(NCc2ccccc2)n1
→ 4 | 104 | 97 | 10
O=C1NCC(O)=C1C=NC12CC3CC(CC(C3)C1)C2
→ -47 | 99 | 103 | -6
COc1ccc(C2CCCN2CC(O)COc2ccccc2C(C)C)cc1 (stereo not drawn)
→ -22 | 103 | 106 | 1
CCOc1nc(NC(=O)NS(=O)(=O)c2cccc(Cl)c2)nc(-c2ccccc2)n1
→ -8 | 105 | 110 | x
O=c1[nH]c(CSc2nnc(-c3ccccc3)n2Cc2ccco2)nc2scc(-c3ccccc3)c12
→ -8 | 108 | 117 | 30
COC(=O)c1nnn(-c2ccccc2)c1C(=O)OC
→ -1 | 101 | 100 | -1
Cc1ccc(C(=O)c2ccccc2C(=O)OCC(=O)N2CCCC2)cc1
→ -25 | 94 | 96 | 2

3 of the compounds above, with bars between the fields.
Compound | Mtb MenB inh | PV pol inh | PV pol inh intensity | Mtb MbtI inh
CCN(c1ccccc1)S(=O)(=O)c1cc(C(=O)OC)n(C)c1 | -5 | 101 | 102 | -25
Cc1cccc(NC(=O)C2c3ccccc3C(=O)N3CCc4ccccc4C23)n1 (stereo not drawn) | -17 | 101 | 104 | -14
O=C(NCc1ccccc1)C1=NS(=O)(=O)c2ccccc2N1 | 5 | 102 | 103 | -6

Continued:
Values run as follows: Mtb MenB inh | PV pol inh | PV pol inh intensity | Mtb MbtI inh
CC1CCN(C(=O)COC(=O)/C=C/c2cccs2)CC1
→ x | 99 | 99 | 1
COc1ccc(NC(=O)c2ccc3nc(C)c(C)nc3c2)cc1
→ -7 | 102 | 106 | x
FC(F)Oc1ccc(Cl)c2ccccc12
→ -6 | 100 | 108 | -4
CC1CC(C)CN(CCCNC(=O)c2cccc3c2SCCC3=O)C1 (stereo not drawn)
→ 1 | 101 | 105 | -4
CC(N)C1CC2CCC1C2 (stereo not drawn)
→ -4 | 103 | 106 | -6
CC(C)N(Cc1nnc(-c2ccc(Cl)cc2)o1)C(=O)/C=C/c1ccc(F)cc1
→ -20 | 105 | 111 | 0
COC(=O)c1ccc2c(=O)[nH]c(COC(=O)c3c(-c4ccccc4)noc3C)nc2c1
→ 2 | 106 | 106 | -5
O=C(CN(C1=NC2CS(=O)(=O)CC2S1)c1ccc(F)cc1)Nc1ccccc1C(F)(F)F (stereo not drawn)
→ -18 | 102 | 101 | -8
C=CCNc1nc(C(=O)OCCCn2c(=O)[nH]c3ccccc32)cs1
→ -49 | 108 | 105 | -8
CCCCN(C)c1nc(CC)c2c(c1C#N)CC(C)(C)OC2
→ 8 | 104 | 98 | i
O=C(COC(=O)c1ccc(OC(F)(F)F)cc1)NCc1ccccc1
→ x | 102 | 104 | -3
CC(=O)N[C@@H](Cc1c[nH]c2ccccc12)C(=O)NCc1ccccc1
→ -5 | 104 | 108 | 17
CC(C)N(C(=O)CNCc1cccs1)C(C)C
→ -22 | 103 | 103 | -10
CCc1ccc2c(CC(=O)N(C)Cc3ccccc3OC)coc2c1
→ -13 | 102 | 105 | 3
CCOC(=O)N1CCN(C(=O)C(C)Oc2ccc(Br)cc2)CC1 (stereo not drawn)
→ -17 | 102 | 103 | -17
CC(C)C(=O)Nc1ccc(-c2nc3cc(Cl)ccc3o2)cc1
→ -2 | 114 | 120 | x
Cc1cc(C)c(C#N)c(SCC(=O)N(C)C2(C#N)CCCCC2)n1
→ -27 | 105 | 116 | -2
CCC(=O)N(c1nnc(SCCCn2c(=O)c3c(ncn3C)n(C)c2=O)s1)C1CC1
→ -11 | 102 | 104 | -13
Cc1cc2c(c(=O)n1CC1CCCO1)C(c1cccs1)C(C#N)=C(N)O2 (stereo not drawn)
→ -17 | 104 | 109 | -2
NC1=NC(=O)/C(=C/c2ccc(O)c(Br)c2)S1
→ -151 | 114 | 117 | x

Continuation:
Values run as follows: Mtb MenB inh | PV pol inh | PV pol inh intensity | Mtb MbtI inh
CCN1CCCC1CNCC(O)COCC1CCCO1 (stereo not drawn)
→ 12 | 100 | 107 | -3
CN1C(=O)C(O)(C2OC(C)(C)CCC2=O)c2ccccc21 (stereo not drawn)
→ -1 | 102 | 104 | -5
Cc1cc(N2CC3CC(C2)c2cccc(=O)n2C3)n2ncnc2n1 (stereo not drawn)
→ -6 | 101 | 100 | 6
CCOC(=O)N1CCC(NC(=O)c2c(C)nn(-c3ccc(F)cc3)c2-n2cccc2)CC1
→ -1 | 100 | 101 | -14
O=C(NCC1CCN(c2ccc(S(=O)(=O)N3CCOCC3)cc2)CC1)Nc1cccc(F)c1
→ -51 | 101 | 102 | -7
CC(Sc1nc2ccccc2n1C)C(=O)Nc1ccc(N2CCOCC2)cc1 (stereo not drawn)
→ -23 | 100 | 101 | 17
COc1ccc(N2CCN(CCNC(=O)Cn3ncc4c([nH]c5ccc(C)cc54)c3=O)CC2)cc1
→ 8 | 100 | 102 | -6
O=C(NCCCN1CCOCC1)C1CCC(=O)N1C1CCCCC1 (stereo not drawn)
→ -2 | 98 | 100 | -3
CCOC(=O)C1C(c2ccccc2)NC(=O)NC1(O)C(F)(F)F (stereo not drawn)
→ -2 | 103 | 104 | 0
Nc1c(C(=O)NC2CCCCC2)nsc1C(=O)OCC(=O)NC1CCCCC1
→ -11 | 103 | 103 | 24
c1cncc(CNCCc2c[nH]c3ccccc23)c1
→ 7 | 101 | 103 | 2
Cc1ccc(CNC(=O)CSc2nc(NCCc3ccccc3)c3ccccc3n2)cc1
→ -6 | 103 | 106 | 6
Cc1ncc2c(n1)-c1cc(F)ccc1SC2
→ -13 | 102 | 104 | 0
COc1ccc2c(Sc3ccccc3)c(C(=O)N3CCc4ccccc43)[nH]c2c1
→ 14 | 99 | 104 | 17
CSc1nnc(C2CCCN2Cc2cccnc2)n1C (stereo not drawn)
→ -17 | 105 | 105 | -7
Cc1cc(C(=O)CSc2nnc(NCc3ccccc3)s2)c(C)n1C
→ 0 | 103 | 103 | 20
O=C(CCn1nc(-c2ccc(Cl)cc2)c2ccccc2c1=O)NCC1CCCO1 (stereo not drawn)
→ -3 | 101 | 98 | -15
CCOc1ccc(N=Cc2c(C(=O)O)[nH]c3ccccc23)cc1
→ -20 | 100 | 104 | 12
NS(=O)(=O)c1ccc(N=Cc2c(O)n(Cc3ccc4c(c3)OCO4)c(=O)c3ccccc23)cc1
→ -26 | x | x | -4
O=c1ccc(-c2ccco2)n[nH]1
→ 4 | 99 | 103 | 107

(further entries)
Values run as follows: Mtb MenB inh | PV pol inh | PV pol inh intensity | Mtb MbtI inh
O=S(=O)(c1cccc(-c2nnc3n2CCCCC3)c1)N1CCCCC1
→ -18 | 106 | 110 | 0
Cc1c(CCl)cc(C(=O)O)cc1CCl
→ x | 101 | 104 | -2
COc1cc2c(cc1OC)CN(C(=S)Nc1ccccc1)CC2
→ -3 | 101 | 101 | -6
CCSc1nnc(NC(=O)CCc2ccc(C)o2)s1
→ -30 | 101 | 103 | -2
CC(=O)NNc1nc(-c2ccccc2)cs1
→ 0 | 97 | 108 | 0
Fc1ccc(NC(=S)N2CCC3(CC2)OCCO3)c(F)c1
→ 0 | 99 | 95 | -2
CC(OC(=O)Cc1ccc(F)cc1)C(=O)Nc1ccc2c(c1)OCCO2 (stereo not drawn)
→ -13 | 94 | 62 | -11
COC(=O)c1c(C)oc2ccc(N(C(=O)C3CCCCC3)S(=O)(=O)c3cc(C)c(C)cc3C)cc12
→ 1 | 105 | 109 | -10
CNC(=O)CSCc1cc(C)cc(C)c1
→ 9 | 99 | 101 | -5
CSc1cccc(NC(=S)N(C)C)c1
→ -57 | 99 | 101 | 74*
Cc1ccc2nc(CN)[nH]c2c1
→ 10 | 103 | 104 | 2
CSc1ccccc1NC(=O)C1CC(c2cccc(Br)c2)=NO1 (stereo not drawn)
→ -22 | 103 | 108 | -6
O=C(NCN1CCC(Cc2ccccc2)CC1)c1nc(-c2ccncc2)no1
→ -11 | 101 | 99 | 0
CC(=O)N1CCc2cc(S(=O)(=O)CCC(=O)Nc3ccc(C(F)(F)F)cc3)ccc21
→ -13 | 105 | 99 | 5
Cc1cccc(N2CC(c3nc4ccccc4n3C)CC2=O)c1 (stereo not drawn)
→ 1 | 106 | 111 | -10
CC(C)CCC1(C)NC(=O)N(CC(=O)c2ccc3c(c2)OCO3)C1=O (stereo not drawn)
→ -8 | 102 | 100 | 27
CCOc1ncccc1C(=O)N1CCN(S(=O)(=O)c2ccc3c(c2)OCCO3)CC1
→ -11 | 107 | 108 | -12
O=C(Oc1ccccn1)C1COc2ccccc2O1 (stereo not drawn)
→ 1 | 97 | 97 | x
FC(F)(F)c1cccc(N2CN(CCCN3CCOCC3)CNC2=S)c1
→ 17 | 102 | 105 | 1
O=C(NCc1ccncc1)c1cc(-c2ccco2)nc2ccccc12
→ x | 102 | 102 | 118
CCc1ccccc1NC(=O)Nc1cc(OC)cc(OC)c1
→ -8 | 103 | 104 | 2
Cn1c(=O)c2c(nc(Oc3cccc(/C=N/NC(=O)c4nonc4N)c3)n2C)n(C)c1=O
→ -16 | 100 | 101 | -1
